ALR H2O2 inh = inhibitors of human ALR sulfhydryl oxidase, primary screen, biochemical, H2O2 detection, HRP-luminol luminescence, single point; AID 485317, 2010; FAD-linked sulfhydryl oxidase ALR (Homo sapiens), P55789; inhibition, % (concentration not given with the values); purified ALR, DTT oxidation; 290,000 tested, 3.8% active;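 active = mean and each replicate at 75% or more; inconclusive = only one of the two met; inactive = neither met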;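 note: stock transfer was 7.5 nL into about 7.5 µL; 0% = neutral wells and 100% = wells with inactivated enzyme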
Target sequence (P55789 whole entry, looked up): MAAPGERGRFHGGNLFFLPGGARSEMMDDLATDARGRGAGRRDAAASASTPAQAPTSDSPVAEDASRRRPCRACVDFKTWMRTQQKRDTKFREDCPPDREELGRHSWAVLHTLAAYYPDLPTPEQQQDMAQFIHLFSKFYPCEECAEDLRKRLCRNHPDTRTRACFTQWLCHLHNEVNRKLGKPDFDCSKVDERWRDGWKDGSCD
RanGTP-Imp inh = inhibitors of RanGTP-importin-beta interaction, primary screen, biochemical, FRET, CFP-Ran, YFP-importin-beta, homogeneous; cell-free CFP-Ran/YFP-importin-beta FRET ratio; inhibition, % (no concentration beside the values); 300,000 tested, 1.1% active; AID 2216, 2009;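 active = most replicates above 15%; inconclusive = exactly half above 15%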;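 note: 0% = DMSO wells and 100% = Ran loaded with GDP instead of GTP; wells of about 40 µL received 100 nL stock; the first replicate is given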
MLL AF4-AF9 inh = inhibitors of AF4 peptide binding to AF9, primary screen, biochemical, AlphaScreen, biotin-AF4 peptide, FLAG-AF9, single point; inhibition, % at 10 µM; 350,000 tested, 0.47% active; AID 651704, 2012;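 active = every replicate reaching a set inhibition limit, whatever the replicate mean, cut at about 25% in these data; inconclusive = mean inhibition reaches that limit but some replicates miss it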;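 note: 0% = plate neutral control median and 100% = total signal loss; the record names both 10 and 1 µM as test concentration; the first replicate is given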
Target sequence (P42568 whole entry, looked up): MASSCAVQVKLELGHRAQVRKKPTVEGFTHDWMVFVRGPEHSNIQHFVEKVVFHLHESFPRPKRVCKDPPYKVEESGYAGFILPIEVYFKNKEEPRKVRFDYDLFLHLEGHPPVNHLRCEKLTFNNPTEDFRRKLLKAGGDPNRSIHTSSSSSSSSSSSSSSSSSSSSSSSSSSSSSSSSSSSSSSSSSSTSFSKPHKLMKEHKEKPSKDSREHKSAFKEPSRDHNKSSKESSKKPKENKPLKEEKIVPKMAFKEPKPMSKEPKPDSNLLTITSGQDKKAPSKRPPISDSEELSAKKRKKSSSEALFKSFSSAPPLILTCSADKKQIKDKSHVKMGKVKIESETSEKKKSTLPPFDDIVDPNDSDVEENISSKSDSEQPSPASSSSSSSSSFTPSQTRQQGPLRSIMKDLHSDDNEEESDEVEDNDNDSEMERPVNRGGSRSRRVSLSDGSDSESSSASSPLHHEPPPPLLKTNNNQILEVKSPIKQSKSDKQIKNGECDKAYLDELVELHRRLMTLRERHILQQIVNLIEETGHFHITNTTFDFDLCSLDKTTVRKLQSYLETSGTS
Beta cell apopt = inhibitors of cytokine-induced beta cell apoptosis, primary screen, luminescence; INS-1E cytokine-induced death, ATP luminescence, 48 h; percent of positive-control rescue, neutral wells zero; protection from apoptosis, % (concentration not given with the values); 300,000 tested, 0.8% active; AID 435005, 2010;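 active = all replicates at 75% or more, or half of them and the mean; inconclusive = half reach 75% but not the mean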;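 note: 0% = cytokine-treated negative control wells and 100% = positive control rescue; higher means more ATP so stronger rescue from cytokine killing; wells of about 40 µL received 100 nL stock; the first replicate is given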
FGF22 binding = binders of human FGF22 protein, primary screen, FGF22 synaptogenesis inhibitor project, biophysical, thermal shift, single point; 340,000 tested, 1.5% active; Fibroblast growth factor 22 (Homo sapiens), Q9HCT0; AID 651658, 2012; recombinant FGF22 thermal shift, SYPRO orange fluorescence; percent of sucrose octasulfate shift, DMSO zero; calls only at 9.99 µM;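 active = melting point raised past a set limit in the mean and every replicate; inconclusive = no clear call; three in four hits are not shown here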
Target sequence (Q9HCT0 whole entry, looked up): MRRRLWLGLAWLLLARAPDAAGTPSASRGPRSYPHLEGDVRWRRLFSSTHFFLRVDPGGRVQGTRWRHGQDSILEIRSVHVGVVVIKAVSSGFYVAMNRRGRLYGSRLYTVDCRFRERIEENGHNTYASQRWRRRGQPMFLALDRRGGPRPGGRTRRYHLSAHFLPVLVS
Ecoli rRNA inh = reduced GFP signal of wild-type E. coli, primary screen, bacterial rRNA inhibitor project, GFP/RFP fluorescence, OD600, single point; E. coli WT GFP vs humanized-ribosome RFP mutants, 24 h; stronger effect = lower value; DMSO median 0, no signal -100; GFP signal change (wild-type ribosome), % (test concentration not listed); 350,000 tested, 1.6% active; AID 720706, 2013;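 active = significant combined selectivity score with lowered wild-type GFP, culture density cut under 30%, mutant RFP and density less affected; inactive = any of these conditions unmet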; note: one replicate is shown; some compounds called inactive have numbers as strong as hits
T cruzi repl = inhibitors of intracellular T. cruzi growth, primary screen, luminescence, NIH3T3 host cells; inhibition, % (test concentration not listed); T. cruzi beta-gal in NIH3T3, 90 h; 300,000 tested, 1.4% active;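 active = mean inhibition across valid replicates above about 55%, limit read from the data; inconclusive = mean below that limit but half or more replicates reach it; inactive = mean below it, under half of replicates reach it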;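 note: signal also drops with host cell toxicity which is not excluded here; 0% = plate median of DMSO wells and 100% = zero luminescence signal; higher percent means less beta-gal luminescence so fewer parasites; stock transfer was 50 nL into about 50 µL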
Calb FLC = C. albicans growth inhibition with fluconazole, primary screen, CaCi-2 strain, Alamar Blue fluorescence | C. albicans CaCi-2 (fluconazole-resistant clinical isolate) + fluconazole, 48 h | growth inhibition, % (no concentration beside the values) | 300,000 tested, 0.57% active;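 active = most replicates above 75%; inconclusive = exactly half above 75%; inactive = most below 75%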;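 note: all wells also contain fluconazole at 8 µg/ml as a sub-toxic cotreatment; 0% = median of DMSO wells and 100% = median of geldanamycin control wells; wells of about 8 µL received 7.5 nL stock; the first replicate is given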
Ecoli rRNA inh OD600 = recorded beside Ecoli rRNA inh, whose call it bears; OD600 change, %; measured here: OD600 growth;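 optical density of the mix in the first replicate; 0 = DMSO median and -100 = no signal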
Ecoli rRNA inh RFP = recorded beside Ecoli rRNA inh, whose call it bears; RFP signal change, %; measured here: RFP humanized mutant strains;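 first replicate; 0 = DMSO median and -100 = no signal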
An asterisk follows results filed as active; i = inactive; ? = inconclusive; nt = no result given. Not all compounds are listed; count on the stated rates, not on these rows.

SMILES	ALR H2O2 inh	RanGTP-Imp inh	MLL AF4-AF9 inh	Beta cell apopt	FGF22 binding	Ecoli rRNA inh	Ecoli rRNA inh OD600	Ecoli rRNA inh RFP	T cruzi repl	Calb FLC
CCc1ccc(C(=O)NC(CCSC)C(=O)O)cc1 (centres undefined)	-6	1.6	nt	0	nt	nt	nt	nt	3	0
O=C(O)c1ccc(/C=N/NC(=O)c2cc3ccccc3cc2O)cc1	-1	nt	1.2	0	i	3	-5	-0.9	nt	nt
O=C(N/N=C/c1cc(Br)c(O)c(Br)c1)c1cccc(C(F)(F)F)c1	64	1.1	nt	-5	nt	nt	nt	nt	-14	-9
COc1ccc(-c2ocnc2C(=O)N2CCN(Cc3cccnc3)CC2)cc1	-5	0.8	-1.4	4	i	3	-2	4.4	nt	-6
O=C1Nc2ccccc2N2CCCC12 (centres undefined)	5	2.8	nt	3	nt	nt	nt	nt	-4	6
CCN(CC)c1ccc(/C=N/NC(=O)c2ccco2)c(O)c1	97*	63*	15	93*	i	-39*	-26*	0.5*	61*	89*
Cc1cccc(C)c1NC(=O)CSCC(=O)O	-3	1.0	nt	-5	nt	nt	nt	nt	-10	-3
COc1ccc(N2CC(C)Cn3c2nc2c3c(=O)n(Cc3ccc(C)cc3)c(=O)n2C)c(OC)c1 (centres undefined)	-3	0.4	13	-9	i	4	5	-1.8	4	6
CCCCOC(=O)C1CCCC(C)N1 (centres undefined)	-9	-7.2	4.5	1	i	15	9	-1.5	-9	-7
COc1ccccc1C(=O)COC(=O)CCN=C1NS(=O)(=O)c2ccccc21	3	-0.8	-4.9	-1	i	4	0	2.3	-8	2
O=C(Nc1cc(C(F)(F)F)ccc1N1CCOCC1)c1cccnc1	2	?	nt	-6	nt	nt	nt	nt	12	-6
COc1cc(/C=C/C(=O)OCC(=O)NC(=O)NCc2ccccc2)ccc1OCC#N	-8	0.6	-1.0	-7	i	-4	-5	-0.4	0	34
Cc1cc(OC(=O)c2cc(C(F)(F)F)cc(C(F)(F)F)c2)c([N+](=O)[O-])c(=O)[nH]1	-1	?	3.5	-4	i	0	11	-2.3	-7	1
COCC(C)Nc1nc(C)c(C(C)=O)s1 (centres undefined)	-9	-1.7	0.7	-5	i	19	11	1.8	0	18
COc1ccccc1Nc1nc2c(C)cccc2cc1C#N	-2	3.0	nt	9	nt	nt	nt	nt	5	?
COC(=O)c1cc(C#N)c(OC(C)C)nc1C	4	-1.0	-0.6	3	i	13	9	0.1	-2	47
C[C@H](NC(=O)c1nc[nH]c1C(=O)N1CCN(c2ccccc2)CC1)C(=O)OCc1ccccc1	26	0.2	2.0	3	i	-2	-1	16	-4	-1
Cc1ccc(C(=O)O/N=C(\N)Cc2cccs2)c(Cl)c1	13	-1.4	nt	nt	nt	nt	nt	nt	2	4
CCc1nc(N2CCN(C(C)=O)CC2)c(C#N)c2c1COC(C)(C)C2	-12	-2.6	nt	8	i	8	5	-1.2	-6	1
C[C@@H]1CC[C@]2(O[C@@H](CCO)C[C@@H](O)[C@@H]2O)O1	nt	0.2	-4.4	-2	i	-1	5	-5.0	-21	-4

RanGTP-Imp inh: what is marked active above.
molecule	ALR H2O2 inh	RanGTP-Imp inh	MLL AF4-AF9 inh	Ecoli rRNA inh	Ecoli rRNA inh OD600	Ecoli rRNA inh RFP
CCN(CC)c1ccc(/C=N/NC(=O)c2ccco2)c(O)c1	97*	63*	15	-39*	-26*	0.5*

Continuation.
SMILES	ALR H2O2 inh	RanGTP-Imp inh	MLL AF4-AF9 inh	Beta cell apopt	FGF22 binding	Ecoli rRNA inh	Ecoli rRNA inh OD600	Ecoli rRNA inh RFP	T cruzi repl	Calb FLC
CCc1cc(=O)oc2c3c(cc(OCC(=O)N[C@H](C(=O)O)[C@H](C)CC)c12)OC(C)(C)CC3	nt	3.2	-0.9	-4	i	3	8	-1.5	9	-5
CCN(Cc1ccncc1)C(=O)C1CCN(S(=O)(=O)c2cccs2)CC1	-3	-1.6	nt	-4	nt	nt	nt	nt	-2	-6
CC1Nc2ncnc(N3CCc4ccccc4C3)c2N(Cc2ccc(Cl)cc2)C1=O (centres undefined)	-5	-1.3	nt	-1	nt	-9	-3	14	17	2
COc1cccc(OC)c1NC(=O)Cn1nc(C)c2ccccc2c1=O	4	5.7	-5.2	-4	i	8	7	-1.6	0	-3
C(=N/Nc1nccs1)/c1cccnc1	19	-1.9	-0.4	nt	i	6	5	-3.2	-11	23
O=c1c2c3nc4ccccc4nc3n(/N=C/c3ccco3)c2ncn1CCC1=CCCCC1	-2	5.7	nt	4	nt	nt	nt	nt	-3	25
CN1CCN(c2ccc(NC(=O)COc3ccccc3[N+](=O)[O-])cc2)CC1	-3	-1.5	1.6	-2	i	9	-5	3.2	25	8
COc1ccc(C2=NOC(C(=O)NCCN3CCOCC3)C2)cc1 (centres undefined)	-5	4.9	nt	-7	nt	nt	nt	nt	-15	-14
COc1ccc(CCC(=O)N2CCCSC2=Nc2ccc(C(C)=O)cc2)cc1	-3	0.2	nt	1	nt	nt	nt	nt	3	2
CCOc1ccccc1NC(=O)c1cccnc1	-7	-0.6	nt	2	nt	nt	nt	nt	-7	-6
CC1CCCN(CCCCOc2cccc(Br)c2)C1 (centres undefined)	-4	-1.7	nt	nt	nt	nt	nt	nt	22	7
CCCCN1CC(=O)N2[C@H]3c4cc(C)ccc4OC[C@@H]3[C@H](c3ccccc3)[C@]2(C)C1=O	-10	nt	2.9	-1	i	-3	-33	-12	nt	nt
CCC(c1nnnn1Cc1ccc(OC)cc1)N1CCN(C(=O)c2ccco2)CC1 (centres undefined)	1	-0.9	-2.0	1	i	3	-7	1.8	10	6
Cc1cccc(NS(=O)(=O)c2cc(OCC(N)=O)c(C)cc2Cl)c1	-2	6.3	nt	4	nt	nt	nt	nt	-13	-6
Nc1ccccc1Nc1ccncc1[N+](=O)[O-]	22	-3.0	nt	-1	nt	nt	nt	nt	-5	-5
O=C(Nc1cc(=O)[nH]c2nc(-c3ccccc3)nn12)c1ccc(Cl)cc1	-4	-0.3	5.6	-7	i	8	4	3.2	-7	-1
CCn1c(COc2ccc3c(c2)CCCC3)nnc1SCC(=O)Nc1ccc(C(=O)OC)cc1	-6	1.6	nt	-12	nt	nt	nt	nt	-2	-2
CCc1ccc(NC(=O)CSc2nc3ccccc3c(=O)n2CCN2CCOCC2)cc1	99*	-0.5	nt	0	nt	nt	nt	nt	6	-2
CC(=O)Oc1ccc(C)cc1-n1nc2ccccc2n1	40	4.2	nt	2	nt	nt	nt	nt	-6	-14
CCOc1cc(/C=N/n2cnnc2)ccc1OCC(=O)Nc1ccccc1OC	-15	?	nt	6	nt	nt	nt	nt	1	0

Full records from above:
Record of Cc1cccc(NS(=O)(=O)c2cc(OCC(N)=O)c(C)cc2Cl)c1 : ALR H2O2 inh = -2; RanGTP-Imp inh = 6.3; MLL AF4-AF9 inh = nt; Beta cell apopt = 4; FGF22 binding = nt; Ecoli rRNA inh = nt; Ecoli rRNA inh OD600 = nt; Ecoli rRNA inh RFP = nt; T cruzi repl = -13; Calb FLC = -6
Record of CCCCN1CC(=O)N2[C@H]3c4cc(C)ccc4OC[C@@H]3[C@H](c3ccccc3)[C@]2(C)C1=O : ALR H2O2 inh = -10; RanGTP-Imp inh = nt; MLL AF4-AF9 inh = 2.9; Beta cell apopt = -1; FGF22 binding = i; Ecoli rRNA inh = -3; Ecoli rRNA inh OD600 = -33; Ecoli rRNA inh RFP = -12; T cruzi repl = nt; Calb FLC = nt

The listing picks up, starting 4 compounds before the break.
SMILES	ALR H2O2 inh	RanGTP-Imp inh	MLL AF4-AF9 inh	Beta cell apopt	FGF22 binding	Ecoli rRNA inh	Ecoli rRNA inh OD600	Ecoli rRNA inh RFP	T cruzi repl	Calb FLC
CCn1c(COc2ccc3c(c2)CCCC3)nnc1SCC(=O)Nc1ccc(C(=O)OC)cc1	-6	1.6	nt	-12	nt	nt	nt	nt	-2	-2
CCc1ccc(NC(=O)CSc2nc3ccccc3c(=O)n2CCN2CCOCC2)cc1	99*	-0.5	nt	0	nt	nt	nt	nt	6	-2
CC(=O)Oc1ccc(C)cc1-n1nc2ccccc2n1	40	4.2	nt	2	nt	nt	nt	nt	-6	-14
CCOc1cc(/C=N/n2cnnc2)ccc1OCC(=O)Nc1ccccc1OC	-15	?	nt	6	nt	nt	nt	nt	1	0
CC1CCC(NC(=O)C2CCC(CNc3c(N4CCCCC4)c(=O)c3=O)CC2)CC1 (centres undefined)	nt	0.4	-1.6	2	i	17	10	11	-3	1
CCc1ccc(N2C(=O)c3sc4nnc(C)c(=O)n4c3C2=O)cc1	1	-3.4	nt	1	nt	nt	nt	nt	-21	4
CCOc1ccc(NC(=O)Nc2cc(-c3ccccc3)sc2C(=O)OC)cc1	-1	-4.2	6.6	-2	i	5	-3	-5.4	7	26
O=S(=O)(Nc1ccccc1C(F)(F)F)c1ccc(-c2ccccn2)s1	3	2.1	-3.7	-4	i	-51	-60	-11	0	-1
CCN(CC(=O)Nc1c(F)cccc1F)C(=O)C1(c2ccccc2)CC1	2	?	-6.2	7	i	6	5	0.5	-2	0
Cc1onc(-c2ccccc2Cl)c1C(=O)NCc1nnnn1-c1ccc(F)cc1	2	-4.7	-0.8	1	i	3	3	0.0	-9	0
O=c1[nH]c2ccccc2nc1Cc1ccc([N+](=O)[O-])cc1	95*	-0.1	-0.9	14	i	-1	7	-1.1	1	3
CC[N+]1(CC(O)COC2CC(C)CC(C)(C)C2)CCOCC1 (centres undefined)	-13	-0.9	-5.8	2	i	20	9	1.3	-14	-12
CCN(c1ccccc1)S(=O)(=O)c1ccc(Cl)c(NC(=O)CSc2nncn2C)c1	-3	1.5	nt	-1	nt	nt	nt	nt	8	-4
Cc1ccsc1/C=N/n1cnnc1	-1	3.8	-4.3	-24	i	16	14	0.4	-31	16
O=C(Nc1ccccc1N1CCCC1)c1ccc2ccccc2c1	77*	-0.4	14	11	i	-38	-31	-7.1	9	0
CN(C)S(=O)(=O)c1ccc(C(=O)NCC(c2cccs2)N2CCOCC2)cc1 (centres undefined)	-6	2.7	-14	-1	i	1	2	-3.9	-7	27

Part of the list above, limited to ALR H2O2 inh and T cruzi repl.
molecule,ALR H2O2 inh,T cruzi repl
CCN(CC(=O)Nc1c(F)cccc1F)C(=O)C1(c2ccccc2)CC1,2,-2
CCOc1ccc(NC(=O)Nc2cc(-c3ccccc3)sc2C(=O)OC)cc1,-1,7

High-throughput results from PubChem.
